BasE inh = BasE siderophore enzyme inhibitors, primary screen, biochemical, Acinetobacter baumannii ATCC 17978, fluorescence polarization; purified BasE, fluorescence polarization binding displacement; inhibition, % (concentration not given with the values); 84,000 tested, 0.1% active;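 active means both replicates above 25% with normal brightness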;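 further: 0% = negative plate control signal and 100% = positive plate control signal; stock transfer was 100 nL into about 30 µL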
LANA-nucl inh = inhibitors of KSHV LANA-nucleosome binding, primary screen, biochemical, fluorescence polarization, FITC-LANA1-23, chicken nucleosomes; FITC-LANA1-23 / chicken nucleosome fluorescence polarization; hits give low values; z-score (concentration not given with the values); 51,000 tested, 0.3% active;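 active means both repeat wells score below -2 in polarization z-score versus plate sample wells, excluding overly bright wells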;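 further: 100 nL library stock added to about 30 µL; numbers are from one replicate; some results filed as inactive read as strong as hits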
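Test system: purified chicken nucleosomes with FITC-labelled LANA N-terminal peptide (1-23); Input: 240 nM purified chicken nucleosomes (480 nM peptide binding sites), final; Medium: TEN-BT buffer, pH 7.5; Timing: 10–45 min, room temperature; Technique: fluorescence polarization, 480 nm excitation, 535 nm parallel and perpendicular emission; Replication: duplicates.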
The depositor's hits bear a star; . = not tested or not shown. An excerpt (hit frequency here may not be typical).

Values in the order – LANA-nucl inh, BasE inh
1	COc1ccc(C2CCCCC2O)cc1OC (stereo not given)
  -0.353, 0.3
2	COc1cc(C)nc(Oc2ccc(/C=N/O)cc2)n1
  0.0955, 2.1
3	COc1ccc(OCC2Cn3c(nc4c3c(=O)n(C)c(=O)n4C)O2)cc1 (stereo not given)
  0.0665, -1.3
4	COc1cc(Cl)c(C)cc1NC(=O)NCc1noc2ccccc12
  -0.077, 1.4
5	CCN(CC)C(=O)Cn1cc(S(=O)(=O)CC(=O)NCCc2ccccc2)c2ccccc21
  -1.25, 0.8
6	O=C(O)CNCc1nc2ccccc2[nH]1
  -0.823, 0.7
7	Cn1ccnc1SCn1nnc2ccccc2c1=O
  ., 4.7
8	O=C(O)c1ccc(S(=O)(=O)NC2=NCCS2)cc1
  -0.865, 3.0
9	CCN1/C(=C\C=C2C(=O)OC(C)(C)OC2=O)Sc2ccccc21
  3.44, 10.2
10	CC(C)OC(=O)/C(C#N)=C\c1cccs1
  2.05, 0.2
11	O=C1/C(=C/c2ccccn2)CC/C1=C\c1ccccn1
  ., -0.8
12	CSc1sc(C(=O)/C=C/N(C)C)c(-c2ccccc2)c1C#N
  ., -0.8
13	Cc1ccc(S(=O)(=O)NCCN2CCOCC2)cc1
  -0.945, 2.4
14	CC(c1ccncc1)N(CCN(C)C)C(=O)Nc1ccc(Cl)c(Cl)c1 (stereo not given)
  0.416, -2.8
15	CN(Cc1ccccc1)C(=O)COc1ccccc1Cl
  0.554, 1.6

Excerpt, nos. 11–15
Values in the order – LANA-nucl inh, BasE inh
11	O=C1/C(=C/c2ccccn2)CC/C1=C\c1ccccn1
  ., -0.8
12	CSc1sc(C(=O)/C=C/N(C)C)c(-c2ccccc2)c1C#N
  ., -0.8
13	Cc1ccc(S(=O)(=O)NCCN2CCOCC2)cc1
  -0.945, 2.4
14	CC(c1ccncc1)N(CCN(C)C)C(=O)Nc1ccc(Cl)c(Cl)c1 (stereo not given)
  0.416, -2.8
15	CN(Cc1ccccc1)C(=O)COc1ccccc1Cl
  0.554, 1.6

Additional records:
Values in the order – LANA-nucl inh, BasE inh
16	CCN1CCN(CCCNC(=O)c2ccc(Cn3c(=S)[nH]c4cc5c(cc4c3=O)OCO5)cc2)CC1
  -0.137, -4.5
17	CC(C)Cn1c(SCC(=O)Nc2ccc(S(N)(=O)=O)cc2)nnc1-c1ccco1
  ., -19.4
18	CC(CN1CCCCC1)OC(=O)CCc1ccccc1 (stereo not given)
  0.657, -2.1
19	Cc1noc(C)c1/C=C/C(=O)NNc1c(F)c(F)c(F)c(F)c1F
  ., -0.7
20	CCN(C(=N)N=C(N)N)c1ccccc1
  -0.487, 2.4
21	O=C1c2ccccc2C(=O)N1CCCN1CCN(CCCN2C(=O)c3ccccc3C2=O)CC1
  0.354, -1.6
22	N#C/C(=C(/O)CSc1ncn[nH]1)c1nc2ccccc2[nH]1
  ., -0.7
23	O=C(NCc1ccco1)C1=COCCO1
  ., 2.1
24	O=C(CSc1n[nH]c(-c2ccccc2)n1)c1ccc(S(=O)(=O)N2CCCC2)cc1
  ., -3.7
25	O=S(=O)(Cc1ccc2nonc2c1)c1cccs1
  ., -1.6
26	COc1ccccc1OC(=O)/C=C/c1ccc(I)o1
  ., 1.3
27	COC(=O)c1ccccc1NC(=O)Cn1nc(C)n2cccc2c1=O
  -0.94, -0.9
28	CN(C)S(=O)(=O)c1ccc(SCc2cc3c(cc2Br)OCO3)nc1
  ., 1.6
29	O=C(CC12CC3CC(CC(C3)C1)C2)n1cccn1
  -0.442, 0.9
30	CC(C)C(Nc1n[nH]c(=O)[nH]c1=O)C(=O)O (stereo not given)
  -0.388, 4.1
31	Cc1ccc(C(O)c2nccc3ccccc23)cc1 (stereo not given)
  ., 0.4
32	N#C/C(N=Cc1cccs1)=C(\C#N)NCc1ccccc1Sc1ccc(Cl)cc1
  ., 1.5
33	CCc1ccc(OCC(=O)NC(C)C)cc1
  -0.595, 1.1
34	COc1ccc(-c2nc(-c3ccncc3)[nH]c(=O)n2)cc1
  ., 1.8
35	CCOC(=O)c1sc(C)c2c1NC(C)(c1ccccc1)NC2=O (stereo not given)
  ., -0.3
36	Cc1cccc(-n2c(C)nnc2SCC(=O)Nc2ccccc2C(=O)NC2CC2)c1
  ., -6.7
37	O=C1C=C(NCc2ccco2)CC(c2ccccc2)C1 (stereo not given)
  ., -2.7
38	CC1(C)CC(CC(=O)O)(Cc2ccccc2)CCO1 (stereo not given)
  -0.042, -2.0
39	O=C(O)CCc1ccc2ccccc2n1
  ., 3.4
40	Cc1ccsc1C(=CCCN1CCC[C@@H](C(=O)O)C1)c1sccc1C
  0.121, .
41	Cn1nc2c3ccccc3n(Cc3ccc(F)cc3)c2nc1=S
  0.186, -1.5
42	Cc1ccc(S(=O)(=O)N2C(=O)CCC2C(=O)NCc2ccco2)cc1 (stereo not given)
  0.497, 1.4
43	CN(C)C(=S)SCC(=O)N1CCN(S(=O)(=O)c2ccc3ccccc3c2)CC1
  ., 0.8
44	CON(C)S(=O)(=O)c1ccc(Br)c(C(=O)OCCCn2c(=O)[nH]c3ccccc32)c1
  ., -2.2
45	c1ccc(C2C3=C(Nc4ncnn42)c2ccccc2CC3)cc1 (stereo not given)
  ., 1.9
46	CNC(=S)NCc1ccc(C(=O)OC)cc1
  ., 0.4
47	O=C(O)Cc1ccc(-n2cccc2)cc1
  -0.949, 5.2
48	Cc1ccc(C(=O)ON2C(=O)c3ccccc3C2=O)cc1
  1.04, 1.0
49	Cc1c(Cc2ccc(F)cc2)c(=O)oc2cc(O)ccc12
  ., 3.0
50	O=c1[nH]c2ccccc2[nH]1
  ., 1.0
51	O=C1NCCN1CCNS(=O)(=O)c1ccc(S(=O)(=O)c2ccccc2)s1
  -0.0225, -1.2
52	COc1cccc(C(=O)NC(=S)NCc2ccco2)c1
  -0.875, 2.2
53	CC(C)N1CCC(=O)N(c2ccccc2Cl)C1=O
  -0.524, 3.0
54	CCc1ccccc1N(C)S(=O)(=O)c1cc(-c2cc(C)no2)ccc1OC
  ., 2.0
55	O=c1oc2ccccc2n1CN1CCCCC1
  -0.406, -1.5
56	Cn1c2ccccc2c2cn[nH]c(=O)c21
  0.084, -2.2
57	CCN1C(C(=O)c2ccccc2)=C(OC(=O)c2ccco2)c2ccccc2S1(=O)=O
  0.317, -0.2
58	CC(OC(=O)c1cc2ccccc2[nH]1)C(=O)NC1CC1 (stereo not given)
  ., 1.1
59	O=C(Nc1ccc2c(c1)OCO2)N1CCCc2ccccc21
  0.216, 1.3
60	O=C(Oc1ccc2c(c1)OCO2)c1cccc(Cl)c1
  ., 0.0
61	Cc1cccc(-n2[nH]nnc2=S)c1C
  ., -0.1
62	N#Cc1ccc(CC2=C(O)CC3(CCCCC3)CC2O)cc1 (stereo not given)
  ., 4.3
63	CCOC(=O)NC(c1ccccc1)C1CCCCC1=O (stereo not given)
  ., 0.3
64	O=C(OCc1nnc(-c2ccccc2)o1)C1CCN(C(=O)c2ccc(Cl)cc2)CC1
  ., 1.5
65	Cc1ccc(C)c2[nH]c(=O)c(CCNC(=O)c3ccc(Br)o3)cc12
  -0.593, -4.1
66	CSc1ncccc1C(=O)OCc1cc(=O)n2cc(C)ccc2n1
  ., -4.4
67	CC(C)c1ccccc1NC(=O)/C=C/c1ccco1
  -0.032, 0.4
68	N#Cc1c(-c2ccncc2)[nH]c(=S)[nH]c1=O
  0.978, 0.0
69	N#CC1(C#N)C(C(N)=O)C1c1ccccc1 (stereo not given)
  0.608, 3.9
70	O=C(O)C1(NS(=O)(=O)c2ccc(F)cc2)CCCCC1
  ., 0.2
71	CCC(C)NC(=O)c1ccc(-n2ccc3ccccc32)s1 (stereo not given)
  0.04, 1.5
72	O=C(c1cc(NS(=O)(=O)c2ccc(F)cc2)ccn1)N1CCc2ccccc21
  0.408, -0.8
73	O=C(CC1CCCC1)Nc1cc2c(cc1Br)OCCO2
  ., 4.3
74	Cc1cc(C(=O)OCc2cc(=O)oc3c(C)c(C)ccc23)on1
  ., -0.6
75	CCn1c(-c2ccccc2)c(C(=O)COC(=O)/C=C/c2ccco2)c2ccccc21
  ., 1.9

Later entries.
Values in the order – LANA-nucl inh, BasE inh
76	C/C=N/N=C1/NC(=O)C(CC(=O)Nc2cccc(C)c2C)S1 (stereo not given)
  0.04, 2.2
77	O=C(Nc1ccc(Br)cc1)c1ccc(-n2cccn2)cc1
  0.208, 4.5
78	CC(C)=CC(=O)Nc1ccc(S(N)(=O)=O)cc1
  -0.261, -0.4
79	Cc1cc(OCC(=O)Nc2c(C)ccc3nsnc23)ccc1Cl
  ., -0.1
80	COc1ccc(C(=O)CC2(O)C(=O)N(CC(N)=O)c3ccccc32)c(OC)c1 (stereo not given)
  0.008, -2.2
81	Cc1cc2oc(=O)cc(COC(=O)CCC3NC(=O)NC3=O)c2cc1C(C)C (stereo not given)
  ., -5.2
82	CC(C)NC(=O)Oc1noc2ccc(Cl)cc12
  ., -0.1
83	O=c1[nH]c2cc(Cl)c(Cl)cc2n1-c1ccncc1
  -0.152, -0.3
84	CCc1nc2cccnc2n1-c1ccc(CC(=O)N2CCC3(CC2)OCCO3)cc1
  0.33, 2.3
85	Cc1ccc(C(=O)NC(=S)Nc2ccc(-c3ccc(CO)o3)cc2)cc1
  0.188, 1.9
86	O=S(=O)(c1cccc2ccccc12)N1CCCCC1
  0.139, -2.1
87	CC(OC(=O)c1cc2sccc2n1C)C(=O)NC1CCCC1 (stereo not given)
  -0.19, -0.3
88	O=C1CCC(=O)N1CNc1ccccc1
  0.158, 0.8
89	CCOc1cc(C(=O)Nc2ccc(N3CCCC3=O)cc2)cc(OCC)c1OCC
  -1.2, -0.3
90	Cc1cc(C(=O)Cn2cnc3sc4c(c3c2=O)CCC(C)C4)c(C)n1Cc1ccco1 (stereo not given)
  ., 1.0
91	O=C(NCC1COc2ccccc2O1)c1ccc2c(c1)OCCO2 (stereo not given)
  ., 0.9
92	Cc1oc(S(=O)(=O)N2CCCCC2)cc1C(=O)Nc1ccccc1
  -0.275, 1.3
93	COc1ccc(C2(CNC(=O)c3ccc(NC(=O)c4ccco4)cc3)CCOCC2)cc1
  -0.84, 0.9
94	Cc1cccc(N2CCN(C(=O)CSc3nc4ccccc4nc3N3CC(C)OC(C)C3)CC2)c1C (stereo not given)
  0.525, 1.5
95	COc1ccc(CN(CCN2CCOCC2)C(=O)c2cc3sccc3n2Cc2ccccc2)cc1
  0.567, 1.2
96	O=C(COc1c(CO)cc(Br)cc1CO)NC1CCCc2ccccc21 (stereo not given)
  ., -1.8
97	CC(C(=O)c1ccc(Cl)cc1)n1nc(-c2ccco2)ccc1=O (stereo not given)
  -0.801, 3.8
98	Cc1ccc2nc(NCC(c3c(F)cccc3Cl)N(C)C)cc(=O)n2c1 (stereo not given)
  ., -1.8
99	Cc1nc(N2CC(C)OC(C)C2)c2nnn(Cc3c(F)cccc3Cl)c2n1 (stereo not given)
  2.21, -0.4
100	O=C(O)C1C2C=CC(C2)C1C(=O)N(Cc1ccccc1)Cc1ccccc1 (stereo not given)
  -0.895, -1.4
101	CC1(C)CC(O)c2ccccc2O1 (stereo not given)
  0.111, 2.0
102	O=C(CC1CCCCC1)N1CCN(c2ccccc2)CC1
  -0.383, 1.3
103	CCCc1oc2c(c(=O)c1CC)C(=O)CC(C)(C)C2
  0.485, 1.3
104	Cc1cc(/C=C(/C#N)C(=O)NCc2ccccc2)c(C)n1-c1cccnc1
  -0.77, -3.3
105	CCN(c1ccc(OC)cc1)S(=O)(=O)c1ccc2c(c1)CCCC(=O)N2
  ., 0.8
106	CC1=NN(c2ccccc2)C(c2ccccc2)C1 (stereo not given)
  -0.196, -3.0
107	Cc1cc(NC(=S)NC(=O)c2cn(-c3ccccc3)nc2-c2cccc(Br)c2)no1
  ., -1.5
108	CCc1nnc2c(N3CCCc4ccccc43)nc3ccccc3n12
  ., -0.3
109	FC1(F)C2C3CC4C5C3C1C5C(F)(F)C42 (stereo not given)
  ., 0.3
110	O=C(Cn1cccc1C(=O)c1ccccc1)NCc1ccco1
  0.513, 1.3
111	N#C/C(=N\Nc1ccc(S(N)(=O)=O)cc1)C(=O)Nc1ccc(S(N)(=O)=O)cc1
  ., -0.2
112	Cc1nc2nc(C(F)(F)F)[nH]c2cc1Br
  0.361, 0.7
113	Cc1ccc(/C=C/C(=O)NCC(c2ccco2)N2CCCC2)o1 (stereo not given)
  ., -1.2
114	COc1ccc(CNC(=O)c2c(O)nc3scc(C)n3c2=O)cc1
  0.138, 1.4
115	CSc1ccc(/C=C/C(=O)N2CCC(C(N)=O)CC2)cc1
  ., 1.4
116	Cc1ccc2c(c1)NC(SCC(=O)NCc1ccccc1)=NS2(=O)=O
  0.59, -1.6
117	CCN1C(=O)/C(=C2\C=Cc3cc(C)ccc3N2CC)OC1=S
  -0.63, 1.4
118	COc1ccc(C=Nc2cccc(C(N)=O)c2)cc1OC
  -0.586, 1.1
119	c1cn(-c2ccc(-c3ccn[nH]3)cc2)cn1
  -0.247, .
120	O=C(NCc1csc(-c2cccs2)n1)Nc1ccc(F)cc1F
  -0.0595, 0.7
121	Cc1cc(C)c(Nc2n[nH]c(=O)[nH]2)cc1C
  -0.331, 4.1
122	CC(C)(C)C(=O)CSc1nnc(-c2ccccc2)o1
  1.04, -1.4
123	Cc1nc2c(=O)n(C)c3c(c(=O)n(C)c(=O)n3C)c2o1
  -0.59, 4.0
124	O=C(N/N=C/C1CC=CCC1)c1ccccc1 (stereo not given)
  -0.294, -2.0

Some of these compounds in order of heavy-atom count, low to high:
Values in the order – LANA-nucl inh, BasE inh
119	c1cn(-c2ccc(-c3ccn[nH]3)cc2)cn1
  -0.247, .
122	CC(C)(C)C(=O)CSc1nnc(-c2ccccc2)o1
  1.04, -1.4
123	Cc1nc2c(=O)n(C)c3c(c(=O)n(C)c(=O)n3C)c2o1
  -0.59, 4.0

Screening data deposited in PubChem BioAssay by ICCB-Longwood Screening Facility, Harvard Medical School.
